Mtb betalactam = beta-lactam sensitization of Mtb H37Rv, H37Rv | 0.27% of 330,000 active | M. tuberculosis H37Rv growth with meropenem, percent inhibition; hits of this screen are not shown here | AID 434955, 2010 | inhibition, % at 25 µM;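 active means about 74% or more and at least 40 points above the plate without the antibiotic, then above 30% in a dose series; inconclusive means first-round hits that could not be retested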;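 further: growth measured after seven days incubation then overnight dye step; 0% = bacteria only wells and 100% = bacteria with antibiotic; twin plates without the antibiotic show which effects depend on it; some results filed as inactive read as strong as hits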
* = called active by the depositor; ? = inconclusive. These rows are one share of the data (hit frequency here may not be typical).

SMILES	Mtb betalactam
COc1ccc(C(c2ccc(OC)cc2)C(Cl)(Cl)Cl)cc1	12
COC(=O)/C=C/C1=CN(Cc2ccccc2)CCC1=O	6
Cc1noc(C)c1S(=O)(=O)N(C)C[C@H]1Oc2c(NC(=O)NC3CCCCC3)cccc2C(=O)N([C@H](C)CO)C[C@@H]1C	13
CC1CCCCN1C(=O)c1cc(S(=O)(=O)N2CCOCC2)ccc1Cl (centres undefined)	-1
CC(=O)N1CCN(S(=O)(=O)c2cccc(C(=O)OCC(=O)N(Cc3ccccc3)C(C)(C)C)c2)CC1	-6
Cc1ncsc1CCC(=O)N1CCCC(Nc2ccc(F)c(F)c2)C1 (centres undefined)	?
CNc1oc(-c2ccccc2F)nc1S(=O)(=O)c1ccc(C)cc1	?
CCN(C(=O)CN1CCC(C(=O)OC)CC1)c1c(N)n(Cc2ccccc2)c(=O)[nH]c1=O	-4
Cc1c(C(=O)Nc2cccc(S(=O)(=O)N3CCOCC3)c2)oc2ccc(Br)cc12	-4
COc1ccc(OC)c(S(=O)(=O)n2ccc(C)n2)c1	-9
CCCN(C(=O)C(NC(=O)c1ccccc1)C(C)C)c1c(N)n(Cc2ccccc2)c(=O)[nH]c1=O (centres undefined)	-5
Cc1cccc(C(=O)N(Cc2ccco2)c2c(N)n(Cc3ccccc3)c(=O)[nH]c2=O)c1	3
O=C(COC(=O)Cn1nc(-c2ccccc2)oc1=O)Nc1ccc(F)cc1	-4
CC[C@]12c3[nH]c4ccccc4c3CCN1C(=O)C(CC(=O)NCc1cccc(C(F)(F)F)c1)C[C@@H]2C(=O)N1CCN(C(=O)C2CC2)CC1 (some centres undefined)	-4
CC(C)NC(=O)N(C)C[C@@H]1Oc2c(NS(=O)(=O)c3ccccc3)cccc2C(=O)N([C@@H](C)CO)C[C@@H]1C	7
C=C[C@]1(C)C=C2CC[C@H]3[C@@](C)(CCC[C@@]3(C)C(=O)O)[C@@H]2CC1	-2
Cc1cc(C)c(C(=O)COC(=O)c2c(C)noc2C)cc1C	30
Nc1cc(=O)[nH]c(SCC(=O)Nc2ccc(N3CCOCC3)cc2)n1	-10
CN(C)CC/C=C1\c2ccccc2CSc2ccccc21	-4
CCCCOc1ccc(C2(C)NC(=O)NC2=O)cc1 (centres undefined)	-19
O=C(OCC(=O)N1CCOCC1)c1ccc2ccccc2c1O	49
COc1cc(OC)cc(-c2c(C#Cc3ccsc3)c3cc(-c4cc(OC)c(OC)c(OC)c4)ccc3n2C)c1	-5
CC(=O)N1CCN(C(=O)C(Cc2ccccc2)NC(=O)c2ccccc2)CC1 (centres undefined)	-1
NC(=O)Nc1ccc(C(=O)OCC(=O)NCc2ccc3c(c2)OCO3)cc1	-1
CN(C)C(=O)C(Sc1ccc(S(=O)(=O)N2CCCC2)cn1)c1ccccc1 (centres undefined)	1
COc1ccc(NC(=O)COC(=O)CN2C(=O)C3CC=CCC3C2=O)c([N+](=O)[O-])c1 (centres undefined)	1
COc1ccc(C(C)C)cc1S(=O)(=O)NCCCn1ccnc1	1
OCC[C@H]1C[C@@H](O)[C@H](O)[C@@]2(CCc3ccccc3O2)O1	-13
O=C(NCCCN1CCOCC1)c1c(-c2ccccc2)sc2ccccc12	1
C/C(=C\c1ccccc1)C1Nc2cccc3cccc(c23)N1	35

Rewritten in markdown: part of the list above
| structure | Mtb betalactam |
| --- | --- |
| Cc1cc(C)c(C(=O)COC(=O)c2c(C)noc2C)cc1C | 30 |
| Nc1cc(=O)[nH]c(SCC(=O)Nc2ccc(N3CCOCC3)cc2)n1 | -10 |
| CN(C)CC/C=C1\c2ccccc2CSc2ccccc21 | -4 |
| CCCCOc1ccc(C2(C)NC(=O)NC2=O)cc1 (centres undefined) | -19 |
| O=C(OCC(=O)N1CCOCC1)c1ccc2ccccc2c1O | 49 |
| COc1cc(OC)cc(-c2c(C#Cc3ccsc3)c3cc(-c4cc(OC)c(OC)c(OC)c4)ccc3n2C)c1 | -5 |
| CC(=O)N1CCN(C(=O)C(Cc2ccccc2)NC(=O)c2ccccc2)CC1 (centres undefined) | -1 |
| NC(=O)Nc1ccc(C(=O)OCC(=O)NCc2ccc3c(c2)OCO3)cc1 | -1 |
| CN(C)C(=O)C(Sc1ccc(S(=O)(=O)N2CCCC2)cn1)c1ccccc1 (centres undefined) | 1 |
| COc1ccc(NC(=O)COC(=O)CN2C(=O)C3CC=CCC3C2=O)c([N+](=O)[O-])c1 (centres undefined) | 1 |
| COc1ccc(C(C)C)cc1S(=O)(=O)NCCCn1ccnc1 | 1 |
| OCC[C@H]1C[C@@H](O)[C@H](O)[C@@]2(CCc3ccccc3O2)O1 | -13 |
| O=C(NCCCN1CCOCC1)c1c(-c2ccccc2)sc2ccccc12 | 1 |
| C/C(=C\c1ccccc1)C1Nc2cccc3cccc(c23)N1 | 35 |

(continued)
SMILES	Mtb betalactam
C[C@H](CO)N1C[C@H](C)[C@@H](CN(C)S(=O)(=O)c2ccccc2)Oc2c(NC(=O)CCC(F)(F)F)cccc2C1=O	-3
O=c1oc(CCCO)cc2ccccc12	1
NS(=O)(=O)c1ccc(CCNC(=O)c2ccc(Cl)c(S(=O)(=O)NCc3ccco3)c2)cc1	0
CN(C)CCNC(=O)C(=O)NCC1OCCN1S(=O)(=O)c1ccc2c(c1)OCCO2 (centres undefined)	-8
COC(=O)c1sc(NC(=S)NC(=O)c2cccc(Br)c2)nc1C	6
CNS(=O)(=O)c1cccc(C(=O)OCC(=O)NC2CCCC(C)C2C)c1 (centres undefined)	-8
Cc1cccc(-n2ncc3c(=O)[nH]c(SCC(=O)Nc4cc(C)on4)nc32)c1	-3
COc1ccc(CCNC(=O)c2cc(C3CC3)nc3c2cnn3C(C)C)cc1OC	-7
CN(C(=O)CSc1nc2ccccc2c(=O)n1C)C1CCS(=O)(=O)C1 (centres undefined)	1
COc1ccc(Cl)cc1C1=CC(=O)C[C@H](c2ccc(F)cc2)C1	17
C#CCN(Cc1ccccc1)S(=O)(=O)C=C	0
c1ccc2c3n(nc2c1)CCCCO3	2
Cc1cnc(C(=O)OC(C)C(=O)Nc2ccc(Oc3ccccc3)cc2)cn1 (centres undefined)	-10
O=C1c2ccc(-c3ccc(F)cc3OCc3ccccc3)cc2S(=O)(=O)c2cccc(C(=O)N3CCN(c4ncc(Cl)cc4Cl)CC3)c21	11
COc1cc2oc(=O)ccc2cc1[C@H](O)[C@@H](O)C(C)(C)O	-1
CCc1cccc2c(C(=O)CN3C(=O)C(=O)N(C4CCCC4)C3=O)c[nH]c12	-3
Cc1ccc(NC(=O)c2c(F)cccc2Cl)cc1S(=O)(=O)N1CCOCC1	4
Cc1ccc(NC(=O)c2ccc(Cl)c(S(=O)(=O)N3CCCCC3)c2)nc1	-10
CCOC(=O)/C=C/[C@H]1Cc2ccccc2CO1	13
CC(Oc1ccc(Br)cc1)C(=O)NCCCN1CCCC1=O (centres undefined)	-11
COc1ccc(NC(C)=O)cc1NC(C)C(=O)Nc1cccc(S(=O)(=O)N2CCOCC2)c1 (centres undefined)	-2
O=C(NNC(=O)C1CCCC1)c1ccc(F)cc1	-1
CCOC(=O)CNC(=O)C1CCN(S(=O)(=O)c2ccc(-c3nn[nH]n3)cc2)CC1	1
CC(C)(C)OC(=O)C[C@@H]1C/C=C\C[C@@H](CC(=O)NCCO)C(=O)NC[C@H](c2ccccc2)OC1=O	-6
CNC[C@H]1Oc2ccc(NC(=O)Nc3ccc4c(c3)OCO4)cc2C(=O)N([C@H](C)CO)C[C@@H]1C	-8
COc1ccc(N(Cc2ccccc2)S(=O)(=O)c2cccc(C(=O)Nc3ncccc3C)c2)cc1	-6
O=C(NCc1ccco1)c1cccc2c1C(=O)c1ccc(N3CCCC3)cc1S2(=O)=O	43
CC1CCCCC1NC(=S)NC(=O)c1ccccc1Cl (centres undefined)	-4
Cc1ccc(S(=O)(=O)N(C)C)cc1NC(=O)COc1cccc(-n2cnnn2)c1	-4
COc1cc(/C=C2\SC(=S)N(NC(C)=O)C2=O)ccc1OC(=O)c1ccco1	-3
O=C(Nc1ccc2ccccc2n1)c1ccccc1Br	6
CC(Sc1nncs1)C(=O)Nc1ccc(S(=O)(=O)Nc2ncccn2)cc1 (centres undefined)	-2
O=c1oc2ccc(C#CC3(O)CCCCC3)cc2cc1-n1cc(-c2ccsc2)nn1	-8
C[C@H](NC(=O)c1[nH]cnc1C(=O)Nc1nccs1)c1ccccc1	66
COC(=O)C1=C(c2ccc(F)cc2OCc2ccccc2)C[C@@H]2CC[C@H]1N2C(=O)N1CCC(C)CC1	-14
CCOc1ccc(C(C)=O)cc1COC(=O)CNC(=O)C12CC3CC(CC(C3)C1)C2	49
Cc1ccc(CC(=O)Nc2nccs2)cc1C	10
CCOC(=O)[C@@H]1[C@H]2COc3cc(OC)ccc3[C@H]2N2C(=O)N(c3ccc(Br)cc3)C(=O)[C@]12C	-3
CN1C(=O)[C@H]2[C@@H](/C=C/c3ccccc3)N3C(=O)CN(Cc4ccccn4)C(=O)[C@@]3(Cc3ccccc3)[C@H]2C1=O	-2
Cc1ccc(S(=O)(=O)/N=C(/Nc2ccc(O)c(C(=O)O)c2)c2ccccc2)cc1	-5
Cc1cccc(NS(=O)(=O)c2cccc(C(=O)NNC(=O)c3ccccc3O)c2)c1	1
CC1CCC2(CC1)NC(=O)N(CC(=O)NCCc1ccc(F)cc1)C2=O (centres undefined)	-4
CC(NS(=O)(=O)c1ccc(OCC(=O)N2CCCC2)cc1)c1ccccc1 (centres undefined)	-5
CCN1CCN(CC(=O)N/N=C/c2cc(Br)cs2)CC1	2
CC(CC(=O)O)NCC1COc2ccccc2O1 (centres undefined)	-6
COc1ccc(Cl)cc1NC(=S)NC(=O)c1ccco1	-6
COC(=O)[C@]1(Cc2ccccc2)N[C@H](CN(C)C(=O)Nc2ccc(C(F)(F)F)cc2)[C@@H]2C(=O)N(C)C(=O)[C@@H]21	-10
O=C(Nc1ccc(O)cc1)c1ccc2c(c1)C(=O)N(N1C(=O)c3ccccc3C1=O)C2=O	-4
COC(=O)c1ccc(C)c(NC(=O)CCCN2C(=O)NC(C)(C)C2=O)c1	-3
C=CCC[C@@H](Cc1ccc(F)cc1)C(=O)OC[C@H](Cc1c[nH]c2ccccc12)NC(=O)[C@@H](CC=C)CC(=O)NCCO	55
Later entries
SMILES	Mtb betalactam
O=C(OCC(=O)N1CCCCC1)c1ccc2c(c1)C(=O)N(Cc1ccco1)C2=O	2
O=C(Cc1ccsc1)OCC(=O)c1ccccc1	6
Cc1ccc(S(=O)(=O)N2CCOCC2)cc1C(=O)OCC(=O)NCCc1ccc(F)cc1	-7
COC(=O)C1=C(c2c(C)noc2C)C[C@@H]2CC[C@H]1N2C(=O)N1CCc2cc(OC)c(OC)cc2C1	3
CC(=O)c1cccc(S(=O)(=O)NCCCN2CCOCC2)c1	0
CC(=O)C[C@H](O)CC(=O)[C@H]1OC(=O)CCCCCCCCc2ccccc21	13
COCC(=O)Nc1ccc(N2CCCC2)c(S(=O)(=O)Nc2ccccc2OC)c1	-7
COc1ccccc1C(=O)COC(=O)CN1C(=O)C2CC=CCC2C1=O (centres undefined)	-2
CN(C(=O)C1CCCCN1S(=O)(=O)c1ccccc1)c1ccccc1 (centres undefined)	0
COCc1cccc(C2=CC(=O)C[C@H](c3ccc(OC)cc3)C2)c1	2
CSc1ccc(S(=O)(=O)NCC(=O)OCC(=O)N2CCC(C)CC2)cc1[N+](=O)[O-]	3
CCCCNC(=O)CSc1ccc(S(=O)(=O)N2CCOCC2)cn1	-5
COc1ccc(NC(=O)COc2ccc(-c3ccccc3)cc2)cc1	83
CCCCC[C@@H]1C=C(C(=O)O)[C@H](c2ccc(Cl)c(Cl)c2)N1S(=O)(=O)c1ccc(C)cc1	-8
CC(C)c1nc(SCC(=O)Nc2nccs2)c2ccccc2n1	9
Cc1ccc(NC(=O)C/C(N)=N/OC(=O)Nc2ccc(C)c(Cl)c2)cc1	6
COc1ccccc1-c1nn(-c2ccccc2)cc1C(=O)N1CCN(C(=O)c2ccco2)CC1	-2
CCOC(=O)c1ccc(S(=O)(=O)NC2CC2)cc1	0
Cc1ccc(C)c(C(C)NC(=O)C2CC=CCC2C(=O)O)c1 (centres undefined)	-11
COc1cc(OC)cc(C(=O)N2CCN(S(=O)(=O)c3ccc(Cl)s3)CC2)c1	-7
O=C(CN1CCN(S(=O)(=O)c2cccc(Br)c2)CC1)N1CCCCC1	-8
Cc1ccc(NC(=O)CNNC(=O)c2cccc([N+](=O)[O-])c2)cc1[N+](=O)[O-]	59
CCCN(C(=O)CSc1ncnc2sccc12)c1c(N)n(Cc2ccccc2)c(=O)[nH]c1=O	-7
Cc1c(NC(=O)CSc2nc(N)cc(N)n2)c(=O)n(-c2ccccc2)n1C	1
COc1ccc(-c2cc(C(=O)OCC(=O)NC3CC3)c3ccccc3n2)cc1OC	-1
O=C(NC1CCCCC1)c1ccc(-n2cncn2)c([N+](=O)[O-])c1	2
CC(Sc1nnc(C2CC2)n1C)C(=O)Nc1ccc2c(c1)CCC2 (centres undefined)	9
COc1ccc(OCc2cc(C(=O)NCc3nc(C)cs3)no2)c(Cl)c1	?
O=C(CN1C(=O)NC2(CCCCC2)C1=O)Nc1ccccc1N1CCCC1	-12
Cc1ccc(N2CC(C(=O)OCC(=O)Nc3ccc(Cl)cc3)CC2=O)cc1 (centres undefined)	-5
CN1CCN(c2cc(-c3cc(O)c4ncccc4c3)ccn2)CC1	3
CCN(C(=O)COC(=O)c1cccc(S(=O)(=O)N(CC)CC)c1)C1CCS(=O)(=O)C1 (centres undefined)	0
COc1cc(C(=O)NCCC2=CCCCC2)ccc1OCc1c(C)noc1C	-11
Cn1c(COc2ccc(Cl)cc2)nnc1SCC(=O)NC1CC1	-6
COc1ccc(-c2cc(C(=O)N3CCN(c4ncccn4)CC3)c3ccccc3n2)cc1OC	14
COc1cc(Cl)ccc1OCc1cc(C(=O)N(C)Cc2nnc(C)o2)no1	?
CCCc1cc(=O)[nH]c(SCC(=O)Nc2ccc(OCc3ccccc3)cc2)n1	-8
CCN(CC(=O)Nc1cc(Cl)ccc1C)C(=O)CCc1nc2ccccc2c(=O)[nH]1	1
c1cc2c(cc1[C@H]1OCC3C1CO[C@@H]3c1ccc3c(c1)OCO3)OCO2 (some centres undefined)	20

Screens from PubChem BioAssay.
